Screening results (PubChem)
Biofilm kill mix: mixture kills Candida albicans biofilm cells; C. albicans biofilm persisters + clotrimazole, fluorescence viability; primary screen in compound mixtures of four per well; inhibition, % at 7.6 µM; 120,000 tested, 0.02% active; AID 1242;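 active = inhibition above 30.3% in the primary screen of four-compound pools, then above 30% when the compound was retested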;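 also: compounds exposed to preformed 24 h biofilms for 48 h; the number belongs to the whole pool; some results filed as inactive read as strong as hits; inactives centre near 12; 0% = biofilm with clotrimazole alone and 100% = kill control; retested singly at about 60 µM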
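Test system: C. albicans biofilms. Buffer or medium: RPMI/MOPS medium, pH 7.0. Timing: 48 h compound exposure at 37 °C. Technique: Alamar Blue fluorescence. Evaluation: percent inhibition of biofilm viability.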
The depositor's hits bear a star.

SMILES | Biofilm kill mix
COC(=O)c1c(NC(=O)c2ccccc2)sc(C(N)=O)c1C | 22
C/C(=N\OCC(=O)O)c1ccc(Cl)cc1 | 15
CCCN(CCC)C(=O)C1CC(=O)OC12CCOC(C)(C)C2 (centres undefined) | 15
O=C(N=Nc1c(O)n(C2OC(=O)c3ccccc32)c2ccccc12)c1ccco1 (centres undefined) | 22
COc1cc(/C=C2/SC(=S)N(CC3CCCO3)C2=O)ccc1O (centres undefined) | 9
COc1cccc(CNC(=O)CN(C)S(=O)(=O)c2cccc3cccnc23)c1 | 23
COc1cc([N+](=O)[O-])cc2sc(NC(=O)C(C)(C)C)nc12 | -31
O=[N+]([O-])c1cccc(-c2nc(-c3ccccn3)no2)c1 | 3
CC(C)(C)C1C/C(=C/c2ccco2)C(=O)/C(=C/c2ccco2)C1 (centres undefined) | 5
COc1ccc(/C(C)=N/NC(=S)NCc2ccco2)cc1 | 1
COc1cc(OC)cc(C(=O)N[C@H](C(=O)OCC(=O)Nc2ccc(OC)c(OC)c2)C(C)C)c1 | 11
COc1ccc(-c2nnc(SCC(=O)N/N=C/c3ccccc3C(=O)O)n2-c2ccc(Cl)cc2)cc1 | -2
Cc1nnsc1C(=O)N/N=C/c1cccc(C(F)(F)F)c1 | 26
CC(=O)CCc1c(C)nc2ccc(C(=O)O)cc2c1Cl | 11
COc1cccc(C(C(=O)NC2CCCC2)N(CC2CCCO2)C(=O)Cc2cccs2)c1 (centres undefined) | 2
O=C(Cc1ccc(Cl)cc1)Nc1ccc(SC(F)F)cc1 | 6
Cc1ccc2oc(-c3ccc(NC(=O)c4ccncc4)cc3O)nc2c1 | 31
O=C(N/N=C\c1ccccc1)c1ccccc1-n1cccc1 | 7
CCOC(=O)/C(=N\Nc1ccccc1Cl)N1CCN(C)CC1 | 19
O=c1[nH]c(CSc2nnc3ccccn23)nc2cc(C(F)(F)F)ccc12 | 12
C/C(CC(=O)NCCCN1CCOCC1)=N\NC(=O)COc1cccc2ccccc12 | -11
Nc1ccc(Cl)c(S(=O)(=O)Nc2ccc(Cl)cc2)c1 | 13
CC1(C)CC(=O)C2=C(C1)N(c1ccc(F)cc1)C(=O)C2(NC(=O)c1ccccc1F)C(F)(F)F (centres undefined) | 13
CCCCc1ccc(NC(=S)NCc2ccc(OC)cc2)cc1 | 10
COc1ccc(COCC(O)CN2CCC(C(N)=O)CC2)cc1OC (centres undefined) | 6
O=C(COC(=O)C12CC3CC(CC(C3)C1)C2)Nc1nc2c(F)c(F)c(F)cc2s1 | 10
O=C(CC1Sc2ccccc2NC1=O)NCc1ccccc1 (centres undefined) | 17
COc1ccc(NC(=O)CN2CCN(c3nc(-c4ccc(F)cc4)cs3)CC2)c(OC)c1 | 28
COc1ccc(N(C)S(=O)(=O)c2cccc(C(=O)NC3CCCC3)c2)cc1 | 8
O=C(CSc1nnc(-c2ccccc2F)n1C1CC1)Nc1ccc2[nH]c(=O)[nH]c2c1 | 16

In a second layout: three of the compounds above
| Compound | Biofilm kill mix |
| --- | --- |
| CCCCc1ccc(NC(=S)NCc2ccc(OC)cc2)cc1 | 10 |
| COc1ccc(COCC(O)CN2CCC(C(N)=O)CC2)cc1OC (centres undefined) | 6 |
| O=C(COC(=O)C12CC3CC(CC(C3)C1)C2)Nc1nc2c(F)c(F)c(F)cc2s1 | 10 |

(next part)
SMILES | Biofilm kill mix
COC(=O)Cn1ccc(-c2ccc(Cl)cc2)c(C#N)c1=O | 14
O=C1CCC(/C=C/c2ccccc2)=NN1Cc1ccccc1 | 8
CS(=O)(=O)NN1C(=O)c2ccccc2NC1c1ccccc1O (centres undefined) | 31
O=C(COc1ccc(-n2ccnc2)cc1)Nc1cccc(Cl)c1 | 2
COc1cccc(CNC(=O)c2cc(COc3c(F)cccc3F)on2)c1 | 15
N#Cc1nc(Cc2ccccc2)oc1N1CCCC1 | -5
COc1ccccc1NC(=O)c1cc(Br)ccc1Cl | 2
CCCCN(CCCC)Cc1ccc(C(=O)NNC(=O)Nc2ccc(F)cc2)o1 | 13
Cc1ccc(NC(=O)c2cccc(S(=O)(=O)N(C)c3ccccc3)c2)cc1S(=O)(=O)N1CCOCC1 | 5
CCOc1ccc(CNC(=O)c2ccco2)cc1 | 9
CC1(C(=O)O)C=CCN1C(=O)c1ccccc1 (centres undefined) | 10
CCOCCCNC(=O)Cn1nc(-c2ccccc2)ccc1=O | 15
CCOc1ccc(CCNC(=O)C2=C(C)C(=O)OC23CCC(C)CC3)cc1OCC (centres undefined) | 17
CC(C(=O)O)n1cc(Cl)cn1 (centres undefined) | 16
CC(=O)N1[C@H](Cc2ccccc2)C=C[C@]1(C)C(=O)NCCc1c[nH]c2ccccc12 | 15
O=S(=O)(c1ccc(N2CCCC2)nc1)N1CCCC1 | 12
O=C(O)c1cc(Cl)c(Cl)cc1C(=O)Nc1cccc2ncccc12 | -2
Clc1cccc(Cl)c1CSc1nnc(-c2ccncc2)s1 | 6
COc1ccc(CNC(=O)c2cc(-c3ccncc3)nc3c(C)cc(C)cc23)cc1OC | 14
N#C/C(=N\Nc1ccc(Cl)c(Cl)c1)C(=O)C1CC1 | 8
CCCOc1ccc(NC(=O)C(=O)NCCCn2ccnc2)cc1 | 22
CC(=O)NC(=S)Nc1ccccc1N1CCCCC1 | 5
O=C(CNC(=O)c1ccc(-c2ccccc2)cc1)OCc1c(F)cccc1Cl | 8
CC(=O)Nc1ccc(-c2csc(NC=C3C(=O)OC(C)(C)OC3=O)n2)cc1 | 16
COc1cc2nc(CN3CCN(C(c4ccccc4)c4ccccc4)CC3)[nH]c(=O)c2cc1OC | 16
Cc1ccc(O)c(-c2cc(-c3cccc(Br)c3)n[nH]2)c1 | 0
O=C(CCNC(=O)c1ccc([N+](=O)[O-])cc1)Nc1nccs1 | 24
CN(c1ccccc1)S(=O)(=O)c1cccc(C(=O)Nc2nccs2)c1 | -1
CC(C)C(OC(=O)c1ccccc1)c1nccc2ccccc12 (centres undefined) | 19
Cn1cnnc1SCC(=O)Nc1ccccc1Sc1ccccc1 | 15
Cc1[nH]n(-c2ccccc2)c(=O)c1/C=N/N1C(=O)c2ccc3c4c(ccc(c24)C1=O)CC3 | 10
CCOc1ccc(/C=C2\SC(=S)N(CCC(=O)O)C2=O)cc1 | 15
Cc1cccn2c(=O)c(/C=C3\SC(=S)NC3=O)c(NCCCN3CCOCC3)nc12 | 18
Cc1sc2nc(-c3ccccn3)[nH]c(=O)c2c1-c1ccccc1 | 12
Cc1cc(C(F)(F)F)nc(-n2cc(-c3cccc(N)c3)nn2)n1 | 8
COc1ccc(CN2CCC(C(=O)N3CCCC(C)C3)CC2)cc1OC (centres undefined) | 15
Cc1ccsc1-c1nc(C(N)=O)c2[nH]c(=O)n(-c3ccc(Cl)cc3)c2n1 | 8
CCOC(=O)c1ccc(NC(=O)C2CCN(C(=O)c3ccc(OC)c(OC)c3)CC2)cc1 | 7
O=C(O)c1cccc(Nc2c([N+](=O)[O-])c(=O)oc3ccccc23)c1 | 15
COc1ccc(-c2cc(C#N)nc(N3CCN(C)CC3)n2)cc1 | 7
CCC(=O)NC(=S)Nc1ccc(S(=O)(=O)N2CCN(C)CC2)cc1 | 5
O=C(Nc1sc2c(c1C(=O)O)CCCCC2)c1ccccc1F | 4
O=C(COC(=O)c1ccccc1C(=O)c1ccc(Cl)c([N+](=O)[O-])c1)NC1CC1 | 13
O=c1[nH]c(-c2ccccc2)nnc1-c1ccccc1 | 17
CCCc1n(CC(O)COCc2ccccc2)c2ccccc2[n+]1C (centres undefined) | 10
COc1ccc2c(CC(=O)OCC(=O)Nc3sc4c(c3C#N)CCC(C)C4)coc2c1 (centres undefined) | 23
CC(OC(=O)/C=C/c1ccco1)C(=O)Nc1cccc([N+](=O)[O-])c1 (centres undefined) | 12
Cc1ccccc1NC(=S)NCCO | -2
O=C(Nc1csnn1)c1csnn1 | 1
CC(C1CC1)N(Cc1ccccc1)C(=S)Nc1ccccc1 (centres undefined) | 25
NC(=O)CC(NC(=O)Cc1cccc2ccccc12)c1ccc(N2CCc3ccccc3C2)c([N+](=O)[O-])c1 (centres undefined) | 14
NC(=O)CC(NC(=O)Cc1cccc2ccccc12)c1ccc(NCc2ccc(F)c(F)c2)c([N+](=O)[O-])c1 (centres undefined) | 10
Cc1nn(CC(=O)NCCc2ccccc2)c(C)c1[N+](=O)[O-] | 15
O=C(Nc1ccc(F)cc1)Nc1ccccc1NS(=O)(=O)c1cccs1 | 19
O=C(N/N=C1/CCS(=O)(=O)c2ccc(F)cc21)c1cccnc1 | 8
O=C(C(=O)N1CCN(c2ccc(F)cc2)CC1)N1CCCCC1 | 20
O=C(O)CC1S/C(=N/N=C/c2ccccn2)NC1=O (centres undefined) | 16
CC(=O)OCC1=C(C(=O)O)N2C(=O)C(NC(=O)C(C)Cn3cc(Cl)cn3)C2SC1 (centres undefined) | 21
NS(=O)(=O)c1ccc(CCNC(=O)c2ccc(C#CC3(O)CCCCC3)cc2)cc1 | 10
CN(C)c1ccc(N2C(=O)CC(Nc3ccc(N4CCOCC4)cc3)C2=O)cc1 (centres undefined) | 7

An excerpt of these results, in CSV form.
Molecule,Biofilm kill mix
Cc1nn(CC(=O)NCCc2ccccc2)c(C)c1[N+](=O)[O-],15
O=C(O)CC1S/C(=N/N=C/c2ccccn2)NC1=O (centres undefined),16
NS(=O)(=O)c1ccc(CCNC(=O)c2ccc(C#CC3(O)CCCCC3)cc2)cc1,10
O=C(Nc1csnn1)c1csnn1,1

Continued.
SMILES | Biofilm kill mix
O=C(CC1Sc2ccccc2NC1=O)NCc1cccc(Cl)c1 (centres undefined) | 8
COc1cc2[nH]c3c(Cl)ncnc3c2cc1OC | 8
CCOc1ccc(NC(=O)Cn2c(=O)n(CC3CCCO3)c(=O)c3ccccc32)cc1 (centres undefined) | 12
Cc1ccc(S(=O)(=O)N2CCOCC2)cc1NC(=O)CNC1CCCC1 | 24
Cc1cccc(NC(NC(=O)c2ccccn2)C(Cl)(Cl)Cl)c1 (centres undefined) | 1
Cc1ccc(S(=O)(=O)NC(=O)COc2ccccc2C)cc1 | 7
CCOC(=O)c1c(C(=O)OCC)c(C)n(Cc2cc(OC)c(OC)c(OC)c2)c1C | 16
CC(=O)Nc1ccc(NC(=S)NC(=O)/C=C/c2ccccc2)cc1 | 5
Cc1ccc(SC[C@H](Cc2ccccc2)N2CCN(C)CCC2=O)cc1 | 12
Cc1cc(C)nc(SCc2csc(-c3ccccc3)n2)n1 | 22
COc1ccc(OC)c(NC(=O)COC(=O)Cc2ccc(Br)cc2)c1 | 14
COc1ccc(OC(C)c2ccc(C#N)c(=O)[nH]2)cc1 (centres undefined) | 6
COC(=O)c1cccc(NC(=O)CSc2nc(O)c(-c3ccccc3)c(=O)[nH]2)c1 | 9
O=C(Cn1ncc(Cl)c(Cl)c1=O)NC1CCS(=O)(=O)C1 (centres undefined) | 9
COC(=O)c1ccccc1NC(=O)Cn1c(=O)n(CCC(=O)NC2CCN(Cc3ccccc3)CC2)c(=O)c2ccccc21 | 13

7 entries drawn at random from those above, as already listed:
SMILES | Biofilm kill mix
COC(=O)c1cccc(NC(=O)CSc2nc(O)c(-c3ccccc3)c(=O)[nH]2)c1 | 9
O=C(CC1Sc2ccccc2NC1=O)NCc1cccc(Cl)c1 (centres undefined) | 8
Cc1ccc(S(=O)(=O)N2CCOCC2)cc1NC(=O)CNC1CCCC1 | 24
Cc1ccc(SC[C@H](Cc2ccccc2)N2CCN(C)CCC2=O)cc1 | 12
CC(=O)Nc1ccc(NC(=S)NC(=O)/C=C/c2ccccc2)cc1 | 5
CCOc1ccc(NC(=O)Cn2c(=O)n(CC3CCCO3)c(=O)c3ccccc32)cc1 (centres undefined) | 12
Cc1cc(C)nc(SCc2csc(-c3ccccc3)n2)n1 | 22

Further compounds follow:
SMILES | Biofilm kill mix
CC(C)Cc1csc(NC(=O)c2ccc(Br)cc2)c1C(=O)O | 23
COc1ccc(Cn2c(O)c(/C=N/NC(=O)c3cccnc3)c3ccccc3c2=O)cc1 | 8
COc1ccc2cc(/C(C)=N/NC(=O)C3CC3)ccc2c1 | 8
COC(=O)c1sccc1NC(=O)c1cnc2cc(C)nn2c1C | 21
COc1ccc(-c2csc(N3CCN(c4cc(C)nc5ccccc45)CC3)n2)cc1OC | -4
CCN(CC)CC#CCOC(=O)C(O)(c1ccccc1)C1CCCCC1 (centres undefined) | 17
NC(=O)CC[C@@H]1NC(=O)[C@H](CO)NC(=O)c2cc([N+](=O)[O-])cc(I)c2OCC[C@@H](C(N)=O)NC1=O | 12
O=C(/C=C\Nc1ccc2c(c1)OCO2)c1ccc2c(c1)OCO2 | 18
c1cn(-c2ncnc3sc4c(c23)CCCC4)cn1 | -5
Cc1cccc(CSCc2ccc(C(=O)NCC3CCCO3)o2)c1 (centres undefined) | 9
COc1ccc(NC(=S)Nc2ccc(S(N)(=O)=O)cc2)c(C)c1 | 16
CC(=O)NC(=S)NNC(=O)COc1ccc([N+](=O)[O-])cc1 | 12
COc1nc(OC)nc(N2CCC(C(=O)NC3CC3)CC2)n1 | 19
COc1cccc(CC2(CO)CCCN(Cc3nc(-c4cccs4)oc3C)C2)c1 (centres undefined) | 20
Cc1ccc(C)n1-c1cccc(C(=O)Nc2ccccc2)c1 | 8
COc1ccc(-c2nn(-c3ccccc3)cc2CNCc2cccnc2)c(F)c1 | 21
Cc1cc(F)ccc1S(=O)(=O)N1CCCOC1CNC(=O)C(=O)NCCC1=CCCCC1 (centres undefined) | 15
CCOC(=O)c1ccc(NC(=O)CSc2ccc(-c3ccncc3)nn2)cc1 | 15
CCSc1nnc(NC(=O)C(C)Sc2nc3ccccc3[nH]2)s1 (centres undefined) | 15
O=C(CSc1nnc(NC(=O)c2ccco2)s1)Nc1ccc2c(c1)OCCO2 | 14
COC(=O)c1cc(NC(=O)c2cccc(C(F)(F)F)c2)c(=O)oc1C | 11

Some of the compounds tested, so the mix of outcomes need not match the whole.
